# Menin MLL FP FL = inhibitors of human menin-MLL interaction, wild-type MLL peptide. AID 1766. 290,000 tested, under 10 active. FP activity change, % at 61.4 µM. Fluorescence polarization, fluorescein-MLL peptide displacement from menin; inconclusive = falling polarisation curve, or a change in total fluorescence; inactive = total fluorescence flat and polarisation flat or rising; no compound was filed as active; the % refers to the polarisation; negative = inhibition;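 note: % of control where 0% means no effect; inhibitors lower the polarisation; unlabelled MLL peptide was the positive control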
# TRPV1 PAM = human TRPV1 potentiation. Q8NER1. potentiation, % at 8.33 µM. AID 540277. 320,000 tested, 0.02% active. TRPV1-expressing cells, Fluo-8 calcium influx, capsaicin EC20 potentiation; host cell line not named in the record; control for the full effect not named in the record; active means potentiation above 80%; inconclusive means 30% to 80%; inactive means below 30%; note: 0% is about no effect
#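 Cells expressing TRPV1 were dye-loaded with Fluo-8 and read kinetically: 10 s baseline, 3 min after compound (agonist portion), then 2 min after EC20 capsaicin (allosteric enhancer portion). Calcium-bound dye fluorescence at 480/520 nm.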
# TRPML1 ag = activates the human TRPML1 channel; Q9GZU1; TRPML1-expressing cells, Ca2+ dye fluorescence, FDSS; host cell line not named in the record; reference of the full effect not given here; activation, % (no concentration beside the values); 410,000 tested, 0.12% active; AID 624414; in the data active = activation above about 50%; inconclusive = about 30% to 50%; inactive = below about 30%; note: 0% is about no effect; the text of the record puts the active cut at 80%
# Target sequence (Q9GZU1 whole entry, looked up): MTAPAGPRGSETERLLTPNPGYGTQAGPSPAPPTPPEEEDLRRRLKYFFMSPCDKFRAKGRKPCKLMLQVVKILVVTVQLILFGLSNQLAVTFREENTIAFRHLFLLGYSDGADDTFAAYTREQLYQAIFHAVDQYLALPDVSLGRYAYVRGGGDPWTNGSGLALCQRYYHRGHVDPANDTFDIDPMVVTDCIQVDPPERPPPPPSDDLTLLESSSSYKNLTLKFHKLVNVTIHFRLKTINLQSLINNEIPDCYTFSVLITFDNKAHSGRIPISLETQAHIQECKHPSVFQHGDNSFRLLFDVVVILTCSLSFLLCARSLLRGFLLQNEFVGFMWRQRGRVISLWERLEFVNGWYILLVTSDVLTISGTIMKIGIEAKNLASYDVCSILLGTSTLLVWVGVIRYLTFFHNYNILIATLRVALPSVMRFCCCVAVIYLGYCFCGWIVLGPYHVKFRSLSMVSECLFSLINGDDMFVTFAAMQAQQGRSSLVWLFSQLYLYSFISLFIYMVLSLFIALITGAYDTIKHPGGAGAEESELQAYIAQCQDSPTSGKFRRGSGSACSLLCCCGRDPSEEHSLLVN
#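 Tet-induced TRPML1-DL cells, 1,500 per well, cultured overnight, were loaded with a no-wash Ca2+ dye for 45–90 min. Calcium fluorescence was recorded on the FDSS for 110 s after compound addition, before the EC80 agonist (4 uM 54-4) was added.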
# TRPML1 inh = human mucolipin-1 channel inhibition; TRPML1-inducible cells, Ca2+ dye fluorescence, FDSS; active compounds read low; inhibition of EC80 agonist-evoked calcium signal; 390,000 tested, 0.02% active; Q9GZU1; activity change, negative = inhibition, % (concentration not given with the values); in the data active means activity change below about -50%; inconclusive means about -30% to -50%; inactive means above about -30%;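 note: stimulus is agonist 54-4 at its EC80 concentration; % is set by controls: 0 for no effect and ±100 for the full control effect; the text of the record puts the active cut at -80%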
#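 Calcium fluorescence in TRPML1-DL cells induced overnight with Tet: a 110 s read after compound pin addition, then a 110 s antagonist read after challenge with 54-4 at 4 uM final (EC80).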
# Sfp PPTase inh = inhibitors of Bacillus subtilis Sfp phosphopantetheinyl transferase. 310,000 tested, 3.5% active. Q9F4F7. Biochemical Sfp PPTase activity, qHTS. AID 1490. Potency, µM, for inactives: max response, negative = inhibition, actives largely listed as inhibitors; active = well fitted inhibition curve with a large enough effect; inconclusive = small, poorly fitted or top-dose-only effect, or another doubt; inactive = no such curve, though single readings can be large or run the other way;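 note: the enzyme is Sfp with the accession as filed and its product quenches rhodamine fluorescence; potency is the fitted concentration of half-maximal effect; 0% = enzyme reaction without inhibitor and -100% = no enzyme wells; top concentration of the series not given in the record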
#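 Compounds were incubated with enzyme (final 15 nM) for 15 min at room temperature before substrate addition started the reaction. Fluorescence at 525 nm excitation, 598 nm emission was recorded immediately and after 30 minutes.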
# PINK1 expr mod = changes PINK1 expression. PINK1 immunofluorescence, high-content cytometry, 24 h. Potency, µM (series often up to 76.6 µM), without a hit: at the highest dose activation (PINK1 increase), hits mostly activators. 410,000 tested, 0.2% active; active = well fitted activation curve with a large enough effect; inconclusive = small, poorly fitted or top-dose-only effect; inactive = flat fitted curve, though single readings scatter; cell line not stated here;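 note: potency is the fitted concentration of half-maximal effect; % of control where 0% means no effect; nearly all actives have a fitted effect of over 65% in size; a mitochondrial uncoupler was the plate control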
#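 Cells are seeded, rested 12 hours, then given compound at five concentrations or DMSO for 24 hours. After fixation, blocking and antibody staining, PINK1 amount and mitochondrial localization are scored; CCCP serves as control.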
# ClpP mod = qHTS Assay for Activators of ClpP; ATP-dependent Clp protease proteolytic subunit (Bacillus subtilis (strain 168)), P80244; purified B. subtilis ClpP, FRET peptide cleavage, 20 min; 340,000 tested, 1.9% active; AID 651965, 2013; Potency, µM (highest dose often 57.5 µM), inactives show at the top dose activity change, negative = active; active = well fitted falling curve with a large enough effect; inconclusive = small, poorly fitted or top-dose-only effect; inactive = no such curve, though single readings can be large or run the other way; note: potency is the fitted concentration of half-maximal effect; the source files actives as falling curves though it sought activators and does not explain the sign; nearly all actives have a fitted effect of over 65% in size; many hits overshoot -100%
# Target sequence (P80244 whole entry, looked up): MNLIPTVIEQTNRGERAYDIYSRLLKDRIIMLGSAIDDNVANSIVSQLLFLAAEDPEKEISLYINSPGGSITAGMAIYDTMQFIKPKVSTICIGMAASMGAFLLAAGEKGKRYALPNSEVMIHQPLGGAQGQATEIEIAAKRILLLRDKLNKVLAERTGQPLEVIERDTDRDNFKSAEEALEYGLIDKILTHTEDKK
#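 Purified B. subtilis ClpP, 10 microg/mL final in Tris/HCl pH8 with KCl, BSA, glycerol and Tween-20, cleaved an Abz/nitrotyrosine-quenched decapeptide. Fluorescence (ex 320, em 430) was read at 0 and 20 min at room temperature. Delta was normalized to 5.8 microM ADEP and DMSO/no-enzyme controls.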
# * marks the source's active call; other numbers are inactive results; ? = inconclusive; / = no result given; & = joins results of further samples; [ ] = another dose, or the depositor's remark.
SMILES,Menin MLL FP FL,TRPV1 PAM,TRPML1 ag,TRPML1 inh,Sfp PPTase inh,PINK1 expr mod,ClpP mod
COc1ccc(NC(=O)c2oc3ccc(S(=O)(=O)N4CCOCC4)cc3c2C)cc1,1.8,-8,0.1&-0.5,3&-14,0%,2.6%&1.2%,21%&17%
CC(C)CC(=O)Nc1ccc(C(=O)NNC(=O)C(c2ccccc2)c2ccccc2)cc1,1.9,-3,0.8,5,0%,?,0.4%
O=C(NCCc1ccccc1)c1nn(-c2ccc(F)cc2)nc1CO,/,/,1.1,-7,/,-0.2%,?
Cc1ccccc1C(=O)Oc1ccc(Br)cc1C(=S)N1CCCC1,0.9,-13,1.9,13,-1%,-1.0%,1.4%
COc1cc(C(=O)NC(C)c2ccc3ccccc3c2)cc(Cl)c1O (configuration not stated),1.8,8,-0.2,-3,15%,0.9%,/
CCOc1ccc(NC(=O)C/C(C)=N/NC(=O)c2cnccn2)cc1,/,4,0.8,-5,-25%,0.4%,-1.7%
C[C@@H]1COC(=O)[C@@H](Cc2ccc(F)cc2)C/C=C\C[C@@H](CC(=O)N(CCO)Cc2ccccc2)C(=O)N1,/,/,-0.7,-6,/,-1.5%,0.8%
O=C(CSc1nc(-c2cccs2)cc(C(F)(F)F)n1)NCc1ccco1,3.2,-14,-0.4,-3,-13%,2.0%[38.3 µM],-4.8%
Cc1nc(CSc2nnc(Nc3cccc(C)c3C)s2)cs1,-2.1,-18,0.3,-3,-14%,2.3%,1.1%
COc1cccc(/C=C/C(=C2/C(=O)N(c3ccccc3)N=C2C)c2ccc(C)cc2)c1OC,-0.5,-5,0.1,-8,-2%,1.1%,-1.6%
CC(=O)N1CCSc2ccc(S(=O)(=O)Nc3cccc(C)c3)cc21,/,28,0.6,-16,10%,1.4%,-1.2%
Cc1ccc(-c2c(C#N)c(N)nc3c2CCCC3)o1,-3.7,5,2.5,57,1%,-0.2%,4.5%
COc1cccc(NC(=O)C(=O)N/N=C(\C)CC(=O)Nc2ccc(NC(C)=O)cc2)c1,0.9,1,3.6,5,10%,-1.2%,1.7%
Cc1ccc(NC(=O)CSc2nnc(-c3ccccn3)n2N)c(Br)c1,-1.3,1,-1.0,-24,10%,1.3%,/
COc1ccc(C(=O)NCCCN2CCOCC2)cc1Br,0.0,3,0.1,1,9%,0.7%,-4.0%
CSc1ccc(/C=N\NC(=O)COc2ccc(Cl)cc2Br)cc1,3.4,-1,2.6,-12,?,28%[38.3 µM],-5.5%
CC(=O)NCCC(=O)N1CCCC(N2CCN(c3cccc(Cl)c3)CC2)C1 (configuration not stated),-5.4,6,-0.1,-5,-17%,1.5%,1.0%
Nc1nnnn1/N=C/c1ccc(Cl)cc1,-5.3,-1,-1.0,17,4%,4.4%,0.0%
Cc1cc(C)nc(Nc2ccccc2F)n1,-3.0,?,-0.2,30,15%,2.9%,-2.6%
COc1cccc(C(=O)O/N=C(\N)CS(=O)(=O)c2ccccc2)c1,/,-5,1.0,-1,16%,0.7%,-0.1%
O=C(Nc1ccc(CN2CCCCC2)cc1)c1cccc(Br)c1,2.7,-2,2.0,13,10%,0.4%,/
CCN(CC)C(=O)CSc1nnc(NC(=O)CCc2ccccc2)s1,-2.3,15,-0.5,6,-2%,1.6%,1.4%
Cc1ccc(-c2nnc(Nc3ccc(C(N)=O)cc3)c3ccccc23)cc1S(=O)(=O)NCC1CCCO1 (configuration not stated),-1.2,0,0.5,-17,18%,2.8%,0.6%
COc1ccc(NS(=O)(=O)c2ccc(NC(=O)C(CCSC)NC(N)=O)cc2)cc1 (configuration not stated),4.4,1,/,/,2%,1.3%,-1.0%
O=C(CSc1nccn1-c1ccccc1)c1ccc(Br)cc1,-0.3,/,0.7,14,-20%,16%,0.7%
O=C(NCC(c1cccs1)N1CCOCC1)c1ccccc1NS(=O)(=O)c1cc([N+](=O)[O-])ccc1Cl (configuration not stated),3.6,2,1.2,7,13%,-0.7%,/
CCc1ccccc1N(CC(=O)N1CCc2ccccc2C1)S(C)(=O)=O,-2.0,-4,/,/,3%,0.1%,0.0%
COCCn1c(=O)c(-c2cccc(F)c2)nc2cncnc21,-0.2,/,/,/,-4%,-1.1%,/
O=C(CN1C(=O)C2CCCCC2C1=O)OCn1nnc2ccccc2c1=O (configuration not stated),1.3,-6,0.4,-24,23%,0.3%,/
C=CCc1cc(C=O)cc(OC)c1OCc1ccc(Cl)cc1,-1.3,-17,2.8,54,2%,23%,2.3%
CCOc1ccccc1Oc1ncnc2c1oc1ccccc12,/,/,1.0,-10,/,6.8%,-1.3%
CC1(C)CC(=O)c2c(nc3ccccc3c2N)C1,-1.5,?,-0.4,2,8%,-1.3%,32µM*
CNC[C@H](CC1CCCCC1)NC[C@H](Cc1ccccc1)NCCC12CC3CC(CC(C3)C1)C2,/,5,1.5,-8,45µM*,-2.2%,-0.8%
C/C(N)=C(/C#N)C(=O)CSc1nn(-c2ccc(Cl)cc2)c(=S)s1,3.4,-4,3.4,-20,-17%,1.4%,-2.1%
CC(NC(=O)c1ccc(F)cc1)c1ccc2c(c1)CCCC2 (configuration not stated),2.6,-14,0.1,10,15%,0.2%,?
Cc1cc(C)nc(SCCCn2c(=O)[nH]c3ccccc32)n1,-0.1,1,-1.0,1,13%,-1.4%,-2.2%
O=C(NCc1ccco1)c1ccc(-c2ccc(F)c(F)c2)c2ccoc12,/,/,-0.2,-5,/,-0.4%,35µM*
O=C(CCc1ccccc1)Nc1ccnn1C1CCN(Cc2ncc[nH]2)CC1,/,7,-0.3,10,2%,-0.8%,-7.2%
CCOc1cc([N+](=O)[O-])cc2c1C(=O)Nc1ccccc1O2,?,-5,2.8,14,13%,8.3%,1.5%
CC(=O)c1ccc(NS(=O)(=O)c2cc(-c3cc(C)no3)ccc2C)cc1,/,/,-1.0,21,/,5.9%,-4.7%
Cc1nc2nc(C)c(NS(=O)(=O)c3ccc(C4CCCCC4)cc3)c(=O)n2[nH]1,-2.9,-9,0.4,10,18%,0.9%,/
CCC1=C2CC[C@H]3C(=O)N(c4ccccc4)C(=O)[C@H]3[C@H]2[C@@]2(C)C(=NCc3ccccc3)OC(=O)N2C1=O,5.3&2.2,?,-0.6,-11,0%&6%,-0.6%,0.5%
O=C(CN1CCN(c2ncccn2)CC1)NCc1ccccc1,4.2,2,-0.8,-7,21%,-2.6%,0.5%
CCCc1cc(=O)[nH]c(SCC(=O)c2cc(C)n(CC3CCCO3)c2C)n1 (configuration not stated),/,/,0.2,-11,/,5.4%,-1.9%
COc1ccc(C(=O)C2CCCN(Cc3cn[nH]c3-c3ccccc3)C2)cc1OC (configuration not stated),0.1,4,0.6,8,-7%,-1.0%,/
CCc1ccc(-n2nc(CO)c(C(=O)NCCOC)n2)cc1,/,/,1.8,21,/,0.7%,13µM*
O=S(=O)(Nc1nc2ccccc2nc1NCCO)c1cccc(Cl)c1,0.9,9,-0.9,-7,6%,0.6%,-8.6%
Nc1nonc1C(=O)N1CCCCC1,-7.0,-4,0.9,-7,17%,0.3%,/
CSCCC(NC(=O)COc1ccccc1)C(=O)N1CCCCCC1 (configuration not stated),/,-7,-0.9,5,/,-0.5%,1.3%
O=C(c1cc(C(F)(F)F)cc(C(F)(F)F)c1)N1CCC2(CC1)CCN(c1ccncc1)CC2,2.1,/,/,/,17%,-0.4%,/
O=C(c1ccc(Cl)cc1)C1CCCN(Cc2ccc(Oc3ncccn3)cc2)C1 (configuration not stated),3.8,-1,-0.3,-7,-6%,-0.1%,-4.6%
COc1ccc(C(=S)N2CCOCC2)cc1OC(=O)c1ccc([N+](=O)[O-])cc1[N+](=O)[O-],/,2,1.6,29,-15%,7.4%,/
Cc1nonc1NC(=O)Nc1cccnc1,0.3,8,0.4,-13,8%,-0.6%,-2.6%
CC(C)(C)c1ccccc1NC(=O)c1ccc2c(c1)SC1=NS(=O)(=O)CCN12,2.8,-3,-0.7,-14,-6%,-3.6%,/
CC(=O)Nc1ccc(S(=O)(=O)N2CCN=C2SCc2ccc(C)cc2)cc1,/,-34,1.3,8,0%,0.6%,0.5%
COc1ccc(/C=N/NC(=O)c2cccnc2)cc1,3.8,?,/,/,4%,0.3%,-3.2%
CCN(CC)S(=O)(=O)c1cc(NC(=O)C(C)N2CCN(Cc3ccc4c(c3)OCO4)CC2)ccc1C (configuration not stated),2.9,-6,0.0,4,1%,2.7%,-7.3%
COC(=O)C1=C(CS(=O)(=O)c2ccccc2)NC(=O)NC1c1ccccc1 (configuration not stated),-4.6,-7,0.1,9,9%,-1.1%,0.1%
Cc1ccc(NC(=O)CN(C)C(=O)c2sc3cc(Cl)ccc3c2Cl)cc1,/,1,1.6,35,/,?,4.0%
C=CCNC(=O)c1onc(CS(=O)(=O)c2cc(C)cc(C)c2)c1C(=O)NCC=C,/,-35,0.7,22,/,0.2%,-18%

# One compound at a time, from the list above. Values in the order: Menin MLL FP FL	TRPV1 PAM	TRPML1 ag	TRPML1 inh	Sfp PPTase inh	PINK1 expr mod	ClpP mod
# Shown for `CCOc1cc([N+](=O)[O-])cc2c1C(=O)Nc1ccccc1O2` = ?	-5	2.8	14	13%	8.3%	1.5%
# Shown for `CC(=O)c1ccc(NS(=O)(=O)c2cc(-c3cc(C)no3)ccc2C)cc1` = /	/	-1.0	21	/	5.9%	-4.7%

# The list goes on.
SMILES,Menin MLL FP FL,TRPV1 PAM,TRPML1 ag,TRPML1 inh,Sfp PPTase inh,PINK1 expr mod,ClpP mod
COc1cc(CN2CCCC(C(=O)Nc3cccc(-n4cccn4)c3)C2)ccc1F (configuration not stated),/,28,-0.3,11,21%,0.3%,2.4%
Cc1[nH]nc(SCC(=O)NC2CCCC2)c1[N+](=O)[O-],1.5,2,0.2,8,7%,-0.2%,-1.3%
COc1ccc(S(=O)(=O)N(C)CC(=O)O)c2ccccc12,3.9,-3,-0.1,29,25%,?,-0.2%
O=C(Cc1ccc(F)cc1)N1CCN(c2ccc(F)cc2)CC1,1.4,12,-0.2,-7,7%,0.2%,1.1%
NC(=O)NC(=O)COC(=O)CCCc1c[nH]c2ccccc12,-1.6,-1,-0.6,-1,-2%,-3.4%,-2.8%

# Source: PubChem BioAssay (National Center for Advancing Translational Sciences (NCATS))
